# Ab BasE inh – inhibitors of Acinetobacter baumannii siderophore enzyme BasE | purified BasE, fluorescence polarization binding displacement | inhibition, % (concentration not given with the values) | 0.1% of 84,000 active;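 active means both replicates above 25% with normal brightness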;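 further: 0% = negative plate control signal and 100% = positive plate control signal; stock transfer was 100 nL into about 30 µL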
# KSHV LANA nucl – inhibitors of KSHV LANA binding to nucleosomes; z-score (concentration not given with the values); FITC-LANA1-23 / chicken nucleosome fluorescence polarization; stronger effect = lower value; AID 720717; 0.3% of 51,000 active;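 active means both repeat wells score below -2 in polarization z-score versus plate sample wells, excluding overly bright wells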;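 further: 100 nL library stock added to about 30 µL; numbers are from one replicate; some results filed as inactive read as strong as hits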
#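 Test system: purified chicken nucleosomes with FITC-labelled LANA N-terminal peptide (1-23); Input: 240 nM purified chicken nucleosomes (480 nM peptide binding sites), final; Medium: TEN-BT buffer, pH 7.5; Timing: 10–45 min, room temperature; Technique: fluorescence polarization, 480 nm excitation, 535 nm parallel and perpendicular emission; Replication: duplicates.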
# * marks the source's active call; other numbers are inactive results; x = not tested or not shown.
# Every second line gives: Ab BasE inh, KSHV LANA nucl
O=C(NC1CC1)c1ccc2c(c1)NC(=O)c1ccccc1S2
  -2.5, 0.64
OCCCCNc1cccc2ccccc12
  -3.3, 0.48
CCc1ccccc1NC(=O)CCSc1nc(-c2ccco2)cc(C(F)(F)F)n1
  1.4, -1.1
O=C(/C=C/c1ccc(Cl)cc1)NCc1ccccc1
  0.7, x
CN(C)S(=O)(=O)c1ccc(SCC(=O)NC2CCCc3ccccc32)nc1 (stereo not given)
  -4.6, x
COc1cccc(CNc2cccc(F)c2)c1
  1.8, -0.91
Cc1nnc(SCC(=O)N2CC3(C)CC2CC(C)(C)C3)[nH]c1=O (stereo not given)
  0.9, x
COc1ccc2oc(C)c(C(N)=O)c2c1
  0.4, -0.47
CCn1c(/C=N/NC(=O)Cc2ccccc2)nc2ccccc21
  0.3, -0.5
CN1CCN(Cc2cc3sccc3n2Cc2ccc(F)cc2)CC1
  -2.4, 0.37
O=C(NCCNc1nccc(C(F)(F)F)n1)Nc1ccccc1Cl
  0.7, 0.79
c1ccc(CNC2CCCc3c2[nH]c2ccc(-c4ccccc4)cc32)cc1 (stereo not given)
  -3.7, x
N#Cc1ccccc1-n1cccc1
  x, -0.39
CN(C)S(=O)(=O)c1ccc(S(=O)(=O)N2CC=C(c3ccc(F)cc3)CC2)cc1
  -0.9, -0.95
O=C(CN1CCN(CC(=O)c2ccccc2)CC1)c1ccccc1
  1.6, -1.1
Nc1noc2c1C(c1ccc(F)c(Oc3ccccc3)c1)C1=C2CCCC1=O (stereo not given)
  1.0, -0.2
O=C(c1ccc(N2CCCC2=O)cc1)N(Cc1ccco1)Cc1cccs1
  2.2, x
Cc1cc(Nc2ccc(C(=O)O)cc2)c2cc(Cl)ccc2n1
  -0.9, 0.67
Nc1nc2c(-c3ccc(Br)cc3)nnn2c2ccccc12
  4.0, x
CN1C(=O)CC(C(=O)Nc2ccccc2F)SC1=Nc1ccc(Cl)cc1 (stereo not given)
  0.5, -0.8
Clc1ccc(-c2ncnn2-c2ccccc2)c(Cl)c1
  -1.9, x
CCC(Sc1nnc2c3ccccc3n(C)c2n1)C(=O)Nc1nnc(C(F)(F)F)s1 (stereo not given)
  -0.1, -0.22
CCOC(=O)c1cn2cc(Cl)ccc2n1
  2.7, x
O=C(CN1C2=NCCN2c2ccccc21)c1ccc(Cl)cc1Cl
  -4.7, x
COc1cccc(CNC(=O)CCCN2C(=O)c3cccnc3Oc3ccc(Cl)cc32)c1
  0.2, -0.23
CSc1cccc(NC(=O)/C=C/c2ccc(C(C)C)cc2)c1
  0.0, x
Cc1ccsc1C(O)c1nnc(-c2ccccc2)o1 (stereo not given)
  -0.6, x
Cc1ccccc1Nc1nc(N)nc(COC(=O)Cc2cccs2)n1
  -1.1, x
COc1ccc(C(=O)COc2coc(CN3CCc4ccccc4C3)cc2=O)cc1
  -3.5, 0.63
O=C(O)C1CCCN1C(=O)c1ccco1 (stereo not given)
  0.8, -0.058

# Quoted at random: 3 records from the list
# Every second line gives: Ab BasE inh, KSHV LANA nucl
O=C(NCCNc1nccc(C(F)(F)F)n1)Nc1ccccc1Cl
  0.7, 0.79
O=C(O)C1CCCN1C(=O)c1ccco1 (stereo not given)
  0.8, -0.058
CCOC(=O)c1cn2cc(Cl)ccc2n1
  2.7, x

# The results go on.
# Every second line gives: Ab BasE inh, KSHV LANA nucl
CC(Sc1nnc(-c2cccs2)n1C1CC1)c1nnc(-c2cccs2)o1 (stereo not given)
  0.4, x
CCOc1cc2[nH]c(=S)n(CCCN3CCC(C)CC3)c(=O)c2cc1OCC
  -1.8, -0.15
CC(C)N=C1NC(=NC(C)C)c2ccccc21
  -2.3, x
CCn1c(=O)[nH]c2ccc(S(=O)(=O)N(C)C)cc21
  -2.7, x
CN(CC1COc2ccccc2O1)C(=O)NC12CC3CC(CC(C3)C1)C2 (stereo not given)
  30*, x
CCOc1ccc(CCNC(=O)c2ccc3c(c2)NC(=O)C2CCCN32)cc1OCC (stereo not given)
  -5.0, 0.17
Cc1occc1C(=O)NN=C1c2ccccc2-c2ccccc21
  1.1, 0
Brc1ccc(-c2nnc(SCCC3OCCCO3)o2)cc1
  1.2, -0.35
COc1cc2c(cc1OC)CN(C(=O)C1CCCN(C(=O)c3ccc(Cl)cc3)C1)CC2 (stereo not given)
  0.6, x
S=C1CC(c2ccccc2)Sc2ccccc2N1 (stereo not given)
  -1.0, x
O=C(CN1C(=O)/C(=C\c2ccc(F)cc2)Oc2ccccc21)NCC1CCCO1 (stereo not given)
  1.2, -0.61
Nc1ccccc1NS(=O)(=O)c1cccs1
  -0.8, x
COc1ccc(CNC(=O)C(C)Sc2nc(C)c(C)n2CC(C)C)cc1 (stereo not given)
  0.4, x
N#CC1(NC(=O)CSc2nc3ccccc3o2)CCCCC1
  2.0, x
C=CCn1c(O)c(N=NC(=O)OC)c2cc(Br)ccc21
  1.0, -0.57
Nc1c(C(=O)NCc2ccccc2)c2nc3ccccc3nc2n1/N=C/c1ccco1
  x, -1.4
CC1(C)Cc2c(ccc3ccccc23)C(=NCCC(=O)O)N1
  -0.2, x
Cc1nc(N2CCCCC2)sc1C1Sc2ccccc2NC1=O (stereo not given)
  0.2, x
O=C(Nc1nn2cnnc2s1)c1ccc(S(=O)(=O)N2CCc3ccccc3C2)cc1
  0.8, x
CC(C)(C)c1nc2ccc(N)cc2[nH]1
  1.5, -0.13
Cc1[nH]c(=S)[nH]c1C12CC3CC(CC(C3)C1)C2
  1.0, x
COc1ccc(N2CCN(C(C)C(=O)N3CCCC3)CC2)cc1 (stereo not given)
  3.4, -1.1
COc1ccc2[nH]cc(S(=O)(=O)c3ccccc3)c(=O)c2c1
  2.1, -0.7
CC(=O)N1c2ccc(S(=O)(=O)N3CCCC3C(=O)N3CCN(c4ccccc4)CC3)cc2CC1C (stereo not given)
  1.0, -1.4
CC1(C)c2cc(Cl)ccc2-n2c1cc(O)c(-c1ccccc1)c2=O
  1.1, x
Oc1cc2[nH]c3ccccc3c2cc1CN1CCOCC1
  0.4, x
c1ccc(CCCN2CCN(C3CCCC3)CC2)cc1
  -1.9, 0.091
CSCCC1NC(=O)N(Cc2c(Cl)cccc2Cl)C1=O (stereo not given)
  1.4, x
Cc1ccc(S(=O)(=O)N2CCN(C(=O)N(C)c3ccccc3)CC2)cc1
  1.0, -0.69
CC1CC(=O)Nc2ccccc2N1C(=O)Cn1nnc(-c2cccs2)n1 (stereo not given)
  1.1, x
COC(=O)c1cc(S(=O)(=O)N2CCCN(Cc3ccc(F)cc3)C2)c[nH]1
  1.2, -0.33
CCSc1sc(CC)cc1C(N)=O
  0.5, 0.21
Cc1[nH]n(C)c(=O)c1C(=O)Nc1ccccc1
  x, -1.6
O=C(NN=C1CCCC1)C1COc2ccccc2O1 (stereo not given)
  1.6, x
O=C(Nc1ccccc1)C1CCN(C(=O)c2ccco2)CC1
  -1.7, -0.19
CCCn1c(SCc2ccc(C(C)(C)C)cc2)n[nH]c1=O
  1.3, x
Cc1nn(CC(=O)NCCCN2CCN(Cc3ccccc3)CC2)c(=O)c2cc(-c3ccccc3)nn12
  2.5, -0.88
COc1ccc(NC(=O)COc2cccc3c2CCNC3=O)c(OC)c1
  3.4, -1.2
CCOc1ccc(CCNC(=O)c2ccc3c(c2)nnn3CC)cc1OCC
  -0.7, x
O=C(c1ccco1)N1CCN(c2ncnc3sc4c(c23)CCC4)CC1
  -0.4, -1
O=C(Cc1n[nH]c(=O)c2ccccc12)N1CCc2ccccc21
  1.0, x
C=CCn1c(=O)c2ccccc2n2c(SCC(=O)N(C)C)nnc12
  -5.3, x
CCOC(=O)/C=C1\SCC(=O)N1CCN1CCCc2cc(C)ccc21
  -2.2, x
CCCc1nc2ccccc2n1CC(=O)N(COCC)c1c(C)cccc1CC
  1.1, x
Cc1ccc2c(c1)c(N=NC(N)=S)c(O)n2CO
  6.9, 0.1
O=C(OCCS(=O)(=O)c1ccc(C(F)(F)F)cn1)c1cccc(Cl)c1
  2.0, -0.75
c1ccc(-c2nc(CSc3nnc(-c4c[nH]c5ccccc45)o3)cs2)cc1
  1.7, x
O=C(NC1CC1)C1CCN(c2ncnc3c2sc2cccc(F)c23)CC1
  1.8, -0.4
Cc1ccc(/C=C(/C#N)C(=O)Nc2ncc(Cc3cc(Cl)ccc3Cl)s2)o1
  2.7, -0.96
CNS(=O)(=O)c1ccc2[nH]c(=O)[nH]c2c1
  -4.5, x
O=C(CC1c2ccccc2CCN1S(=O)(=O)c1ccc(F)cc1)OC1CCOC1=O (stereo not given)
  3.7, x
CCS(=O)(=O)N1CCc2cc(C(=O)CSc3nnc(NC4CC4)s3)ccc21
  1.2, x
CC(C(=O)NCc1ccco1)n1c(-c2cscn2)nc2ccccc21 (stereo not given)
  -0.8, x
Cc1[nH]c2ccccc2c1SCC(=O)NN
  0.5, x
O=C1CC(=O)N(c2ccccc2)N1c1ccccc1
  -0.8, x
CC1CN(CC(=O)NC2CCCCC2)CC(C)O1 (stereo not given)
  2.2, x
OC(CSc1nccc(-c2ccc3c(c2)OCCO3)n1)C(F)(F)F (stereo not given)
  1.8, x
COc1ccc(CCn2c(C)cc(C3=NNC(=NC4CC4)SC3)c2C)cc1
  0.1, x
Cc1ccc2c(c1)NC(=O)C(CCCl)O2 (stereo not given)
  x, -1.3
O=C(NCc1ccco1)C1CCC(N2C(=O)c3ccccc3C2=O)CC1 (stereo not given)
  3.1, -0.18

# Overlap with the part before: 3 entries, followed by the next part.
# Every second line gives: Ab BasE inh, KSHV LANA nucl
COc1ccc(CCn2c(C)cc(C3=NNC(=NC4CC4)SC3)c2C)cc1
  0.1, x
Cc1ccc2c(c1)NC(=O)C(CCCl)O2 (stereo not given)
  x, -1.3
O=C(NCc1ccco1)C1CCC(N2C(=O)c3ccccc3C2=O)CC1 (stereo not given)
  3.1, -0.18
CCN(CC(=O)Nc1ccc2c(c1)OCCO2)C(=O)c1cnc(SC)n1-c1ccccc1
  3.6, x
Cc1nc2c(C(=O)NCCc3ccccc3)c[nH]n2c(=O)c1Cl
  7.5, -0.38
CCC(C)(CC(=O)O)Cc1nc2ccccc2s1 (stereo not given)
  0.5, x
Cc1nnc(SCC(=O)c2ccc3c(c2)OCCO3)o1
  3.3, 0.14
N/C(=N/O)C(c1ccccc1)c1ccccc1
  -0.8, -0.027
Cc1cccc2nc3c(nc12)CCCC3
  0.7, 0.22
COc1cc(NC(=S)N(N)CCO)c(OC)cc1Cl
  -0.3, -0.39
CCCc1[nH]nc2c1C1(CCN(C(C)=O)CC1)C(C#N)=C(N)O2
  0.8, -0.4
CCC(Cc1ccccc1)NC(=O)C1CC1 (stereo not given)
  2.2, -0.55
CCN(/C(N)=N/c1nc(C)cc(C)n1)c1ccccc1
  0.1, -0.2
NS(=O)(=O)c1ccc(CNC(=O)COC(=O)C2CC3C=CC2C3)cc1 (stereo not given)
  14, x
CCC(N=c1cc(-c2ccc(OC)cc2)oc2ccc(C)cc12)C(=O)O (stereo not given)
  0.1, x
Cn1c(=O)c(=O)n(C)c2cc(S(=O)(=O)NCCCN3CCN(Cc4ccccc4)CC3)ccc21
  0.1, 0.88
CSc1sc(-c2nc(C)cs2)c(C)c1-c1ccnc(=S)[nH]1
  -0.4, x
CN(C(=O)Cn1nc(C(F)(F)F)c2c1CCC2)C1CCCCC1
  -0.2, -0.48
CCC(C)(C)NC(=O)c1ccc2c(c1)OCO2
  -2.5, 0.62
CC(NC(N)=O)C(=O)OCc1ccc(C(C)(C)C)cc1 (stereo not given)
  1.8, x
CC(C)CN(C(=O)CSc1ccc2c(c1)OCCO2)c1c(N)n(CC(C)C)c(=O)[nH]c1=O
  1.4, x
Cn1c(Cc2nnc(NC3CCCCC3)s2)nc2ccccc21
  1.1, x
O=C(O)C1Cc2ccccc2N1 (stereo not given)
  1.5, -0.064
N#CCSc1ncccc1-c1nc2ccccc2[nH]1
  -0.2, -0.21
NCc1ccccc1CC(=O)N[C@@H]1C(=O)N2C(C(=O)O)=C(CSc3nnnn3CC(=O)O)CS[C@H]12
  -0.9, -0.37
O=c1c2ccccc2c(C=NCc2nc3ccccc3[nH]2)c(O)n1-c1ccccn1
  -0.1, x
CCOc1ccc(C(=O)N2CCN(c3ccccc3)CC2)cc1
  -0.2, 0.16
NC(=O)NC(=O)CSc1nnc(-c2ccccc2)n1Cc1ccc2c(c1)OCO2
  -0.1, x
C(=N\N=C\c1cccnc1)/c1cccnc1
  5.4, 0.067
CN1c2ccccc2C(=O)C(=C2SCCCS2)S1(=O)=O
  3.5, -1.5
N#CC(C(=O)Cc1ccccc1)c1ccc(Cl)cc1 (stereo not given)
  x, -0.82
COc1ccc(/C=c2\sc3ncnn3c2=O)cc1
  0.4, x
CC1(C)CC(CC(N)=O)(c2ccccc2)CCO1 (stereo not given)
  -2.3, -0.42
CCCn1c(N)c(C(=O)COC(=O)c2cccnc2SC)c(=O)[nH]c1=O
  1.2, x
C/C(=N\O)c1ccc(-n2ccnc2)cc1
  x, 1.8

# Molecules listed so far that have a tert-butyl group (3):
# Every second line gives: Ab BasE inh, KSHV LANA nucl
CC(C)(C)c1nc2ccc(N)cc2[nH]1
  1.5, -0.13
CCCn1c(SCc2ccc(C(C)(C)C)cc2)n[nH]c1=O
  1.3, x
CC(NC(N)=O)C(=O)OCc1ccc(C(C)(C)C)cc1 (stereo not given)
  1.8, x

# From PubChem

# These rows are one share of the data; count on the stated rates, not on these rows.
